# Screens: PubChem, several laboratories
# eIF4H inh – inhibitors of RNA binding by human eIF4H. eIF4H fluorescence polarization binding assay. Q15056. actives 0.94% (n = 290,000). inhibition, % at 35 µM. AID 2012;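 active means 50% or more with normal probe brightness, or confirmed in later tests; about a fifth of its hits are not listed in these tables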;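 further: calls also rest on retests at 20 µM and on dose response follow-up; 0% = protein and probe with vehicle and 100% = probe without protein; strong numbers were not always called active; many hits fall short of the cut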
# Env fusion inh – inhibitors of HIV Env-mediated cell fusion; HeLa-JRFL Env/CEM21 cell fusion, luciferase; inhibition, % at 12.3 µM; actives 1.1% (n = 360,000); AID 651610;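 active means mean replicate inhibition score of at least 50 and every replicate individually at or above 50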;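 further: 0% = plate neutral controls and 100% = maraviroc near 300 nM; one replicate is shown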
# Yeast UUG start – yeast start codon fidelity modulation; S. cerevisiae UUG-firefly luciferase reporter, luminescence/redox ratio; activity score, % at 18.7 µM; actives 0.13% (n = 350,000); AID 602363;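 active means replicate mean at a twofold rise or more, about +100% in these data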;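 further: firefly luciferase made from a UUG start codon reports start codon fidelity; reporter light over untreated wells divided by growth signal over untreated wells; some hits fall short of that in this replicate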
# CSC inhib – blocks cancer stem cells; cancer stem cell-like cells viability, luminescence; inhibition, % at 7.5 µM; actives 1.1% (n = 300,000); AID 2717;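 active means mean at 75% or more and at least half the replicates too; tested in HMLE shEcad cells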;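 further: 0% = median of negative and 100% = median of positive control wells; the first replicate is given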
# PABP polyA inh – blocks human PABP binding to poly(A) RNA. inhibition, % at 35 µM. P11940. AID 2014. fluorescence polarization. actives 1% (n = 290,000);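 active means 50% or more with normal probe brightness, or confirmed in later tests; about a fifth of its hits are not listed in these tables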;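 further: calls also rest on retests at 20 µM and on dose response follow-up; controls were probe without protein and protein plus probe with vehicle; some compounds called inactive have numbers as strong as hits; many hits fall short of the cut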
# Target sequence (P11940 whole entry, looked up): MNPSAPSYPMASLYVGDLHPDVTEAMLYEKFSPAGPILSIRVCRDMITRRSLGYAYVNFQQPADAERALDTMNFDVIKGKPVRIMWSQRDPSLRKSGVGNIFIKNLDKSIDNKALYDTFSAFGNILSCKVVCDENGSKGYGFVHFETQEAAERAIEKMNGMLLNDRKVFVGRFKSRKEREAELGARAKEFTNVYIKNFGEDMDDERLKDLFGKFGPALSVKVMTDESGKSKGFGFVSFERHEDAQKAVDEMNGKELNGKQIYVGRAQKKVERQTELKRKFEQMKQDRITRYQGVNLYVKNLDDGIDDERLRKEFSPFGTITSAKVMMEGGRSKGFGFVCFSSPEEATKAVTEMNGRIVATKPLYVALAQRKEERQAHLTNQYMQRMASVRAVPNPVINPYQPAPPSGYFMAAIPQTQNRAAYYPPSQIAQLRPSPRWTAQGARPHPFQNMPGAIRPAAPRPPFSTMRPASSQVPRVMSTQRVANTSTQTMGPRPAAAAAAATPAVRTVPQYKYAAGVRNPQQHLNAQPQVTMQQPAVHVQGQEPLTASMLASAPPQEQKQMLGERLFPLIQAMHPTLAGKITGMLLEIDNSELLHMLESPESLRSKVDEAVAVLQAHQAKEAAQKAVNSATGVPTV
# Rce1 inhib – blocks yeast Ras-converting enzyme. actives 0.27% (n = 290,000). calls only. yeast membranes, quenched prenylated peptide cleavage fluorescence;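 active means fall in fluorescence gain of 50% or more versus controls, with final raw signal at or below 3038400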;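 further: plate controls were neutral control wells for no effect and wells lacking membranes for full effect; tested at 10 µM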
# Target sequence (Q03530 whole entry, looked up): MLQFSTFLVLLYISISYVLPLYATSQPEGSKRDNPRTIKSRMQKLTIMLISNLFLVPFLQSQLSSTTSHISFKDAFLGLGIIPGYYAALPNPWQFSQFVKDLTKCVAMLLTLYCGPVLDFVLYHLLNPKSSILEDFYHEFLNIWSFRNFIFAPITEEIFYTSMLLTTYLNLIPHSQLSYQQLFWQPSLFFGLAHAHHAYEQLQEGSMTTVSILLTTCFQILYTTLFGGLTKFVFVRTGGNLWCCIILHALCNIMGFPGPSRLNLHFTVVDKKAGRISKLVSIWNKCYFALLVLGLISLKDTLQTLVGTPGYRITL
# MT1-MMP act inh – inhibitors of human MT1-MMP activation. P50281. HT1080 RFP-PRO-GFP cells, GFP/RFP ratio fluorescence, overnight; percent of plate control window, DMSO zero. GFP/RFP ratio change, % at 20 µM. actives 0.061% (n = 360,000);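 active means GFP/RFP ratio change of at least 30% with cell ATP level not reduced by more than half and red fluorescence within 50% of control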; further: strong numbers were not always called active
#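 Test system: HT1080 cells expressing an RFP-PRO-GFP fluorescent reporter construct / Compound dosing: single-point 20 µM compound, 1% DMSO / Schedule: cells overnight before dosing, compound overnight, 37 °C, 5% CO2 / Evaluation: GFP/RFP fluorescence ratio / Control set: DMSO and RFP-L50D-GFP cell wells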
# eIF4H inh retest – further read-out of eIF4H inh, marked with its call; inhibition, %; compound at 20 µM; confirmation average;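 mean of two retest wells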
# PABP polyA inh retest – second read-out of PABP polyA inh, no call of its own (marks repeat the call); inhibition, %; compound at 20 µM; confirmation repeats;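 mean of two retest wells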
# MT1-MMP act inh RFP – also measured in MT1-MMP act inh; calls as there; RFP signal change, %; measured here: RFP expression control read;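 0 = vehicle wells; hits needed this value within 50% of zero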
# * = called active by the depositor; i = inactive; . = not tested or not shown; + = active, no number.
SMILES,eIF4H inh,Env fusion inh,Yeast UUG start,CSC inhib,PABP polyA inh,Rce1 inhib,MT1-MMP act inh,MT1-MMP act inh RFP,others
CN(C)S(=O)(=O)c1ccc(C(=O)NCCN=C2NS(=O)(=O)c3ccccc32)cc1,-5,0,-10,-6,2,i,3,4,
CN(CC(=O)NCCc1ccc(Cl)cc1)S(=O)(=O)c1ccc2c(c1)c(=O)n(C)c(=O)n2C,-6,-3,-11,-4,-9,i,0,1,
CCOC(=O)c1cc(CC)sc1NC(=O)C1CC1,-7,.,-6,.,0,i,1,0,
O=C(O)C(Cc1ccnc2ccccc12)=NO,.,10,-27,.,.,.,-8,2,
Cc1ccc(Cl)c(OCC(=O)NN2CCN(C)CC2)c1,3,11,16,-20,12,i,4,6,
Cc1noc(C)c1CSc1nnc2scc(-c3ccc(Cl)cc3)n12,-8,-46,1,.,-3,i,-1,0,
Cc1ccc(CNC(=O)CCC(=O)Nc2nnc(C3CCCCC3)s2)cc1,-1,15,.,8,3,i,1,-6,
CC(C)Cn1c(CCC(N)=O)nnc1SC(C)C(=O)Nc1ccc2c(c1)OCO2 (stereo unspecified),.,28,-13,-10,.,.,-4,-1,
Cc1csc2c(NCCCN3CCOCC3)ncnc12,-7,4,.,-6,2,i,0,2,
O=C1c2ccccc2C(=O)N1CCSc1ncn[nH]1,2,0,-5,.,27,i,2,4,
Cc1cccc(NC(=O)c2ccc3c(=O)n4c(nc3c2)CCCCC4)n1,.,-11,.,2,.,i,-2,-6,
COC(=O)c1sc2cnccc2c1N,0,-2,-16,-8,3,+,-4,-3,
COc1ccc(CCC(=O)Nc2cccc(S(=O)(=O)N3CCOCC3)c2)cc1OC,.,-10,-12,.,.,.,-1,-4,
Cc1cc2oc(C(=O)NCCc3ccc(S(N)(=O)=O)cc3)cc(=O)c2cc1C,-7,12,-15,-2,-6,i,-1,-6,
O=C1Nc2ccc(Br)cc2/C1=C/C(=O)c1ccc2c(c1)OCO2,6,37,.,65,-6,i,-10,-7,
O=C(CCCn1c(=O)[nH]c2ccc(Br)cc2c1=O)NCc1ccc(Cl)cc1,1,5,.,-14,5,+,5,1,
Cn1c(-c2ccccc2)c(C(=O)CCl)c2ccccc21,4,64*,.,.,5,i,-7,-6,
O=c1cc(C(F)(F)F)oc2c1ccc1ccccc12,-1,-181,-9,-5,1,i,-1,1,
CC(NC(=O)Cn1cnc2c1c(=O)n(C)c(=O)n2C)c1ccccc1 (stereo unspecified),-8,.,-15,-14,51*,i,2,-1,
CCN1CCN(C(=O)CCn2c(=O)c3cccn3c3cccnc32)CC1,4,-5,-3,-7,7,i,0,3,
CC(C)CC(NC(=O)C1CCC(C)CC1)C(=O)Nc1ccccc1F (stereo unspecified),-8,-3,-13,-6,-3,i,-5,-3,
CCCC(c1nnnn1CS(=O)(=O)c1ccc(C)cc1)N1CCN(c2ccccc2)CC1 (stereo unspecified),-4,.,12,-21,0,i,-6,-9,
CCc1ccc(NC(=O)Nc2ccsc2C(=O)OC)cc1,7,-498,-70,-11,-6,i,-4,-4,
Cc1c(C(=O)NCc2cccnc2)oc2ccc(S(=O)(=O)N3CCCC(C)C3)cc12 (stereo unspecified),-19,25,-16,13,-3,i,1,-8,
Cc1ccc(CN2CCN(C(=O)CC(C)C)CC2)cc1,-1,14,-17,-3,21,i,1,0,
O=C(COC(=O)/C=C/c1ccc(S(=O)(=O)N2CCOCC2)cc1)NCc1ccc(F)cc1,-10,-1,.,20,-7,i,1,2,
CSc1nc(N)c(C(=O)Nc2ccc([N+](=O)[O-])cc2)s1,-11,5,5,1,-3,i,6,3,
COc1ccccc1C(=O)NC(CCSC)C(=O)NNC(=O)c1ccncc1 (stereo unspecified),.,-4,-13,5,.,i,-4,3,
COC(=O)c1ccc2nccnc2c1,-3,13,-11,-5,-6,i,2,9,
CCCCC(=O)N(C)c1c(CC)nc2c(OCC(N)=O)cccn12,.,-29,-20,.,.,.,0,3,
Cc1ccc(NC(=S)Nc2ccc(F)cc2)cc1,-11,-20,-2,-11,-10,i,4,-1,
CC(NC(=O)C12CC3CC(CC(C3)C1)C2)C(=O)NCCN(C)C (stereo unspecified),-2,.,-11,-1,1,i,4,7,
CCCCOc1ccc(C(C)NC(=O)C2CCCN(S(=O)(=O)CC)C2)cc1 (stereo unspecified),-2,.,1,24,-2,i,-5,-3,
Cc1ccc(-c2nc(CS(=O)CC(=O)NC3CCCC3)c(C)o2)cc1 (stereo unspecified),-4,32,14,0,2,i,7,2,
CC(=O)Nc1ccc(N/C=C/C(=O)c2ccc(C)cc2)cc1,-13,-13,-2,24,2,.,-2,5,
O=C(CSc1c2c(nc3ccc(Cl)cc13)CCCC2)NCCCN1CCOCC1,-2,-4,-14,11,0,i,1,-1,
COc1ccc(N2CCN(C(c3ccc4ncccc4c3)c3nnnn3C(C)(C)C)CC2)cc1 (stereo unspecified),38,8,.,-4,12,i,0,-3,
CCOC(=O)C1=C2SCCN2C(=O)C(C#N)C1(C)C (stereo unspecified),10,.,-10,-2,-4,i,10,-1,
Cn1cccc1C(=O)OCc1csc(-c2ccccc2)n1,-3,-271,.,-4,2,i,-1,5,
C(=N\Nc1nc(N2CCCC2)nc(N2CCCC2)n1)/c1ccccc1OCc1ccccc1,-5,1,-11,15,-12,i,-2,-1,
CCc1c(C)nc2ccc(Br)cc2c1Cl,0,.,-20,-8,-12,i,-5,3,
COc1ccc(/C=C/C(=O)c2ccc(O)cc2)cc1,9,.,3,-4,8,i,0,-5,
COc1ccc(OC)c(C2=Nn3c(nnc3-c3ccco3)SC2)c1,6,41,3,-11,1,i,-2,-6,
c1ccc2c(c1)Nc1cc3ccccc3cc1O2,.,4,-18,.,.,.,1,6,
Cc1ccccc1NC(=O)CC1C(=O)NCCN1C(=O)c1cccc(Cl)c1 (stereo unspecified),-3,17,-17,-4,12,i,0,1,
CCN1CN=C(NS(=O)(=O)c2ccc(C)cc2)NC1,-16,-57,-14,-9,0,i,-2,0,
CCOCC(=O)Nc1ccc(C)c(Cl)c1,1,-54,7,2,-5,i,.,.,
CCNC(=O)/C(C#N)=C/c1c(N2CCCCCC2)nc2c(C)cccn2c1=O,1,5,-10,-6,3,i,-5,-6,
CC(CN1CCCCC1)C(=O)NN (stereo unspecified),-4,1,-8,-5,0,i,1,4,
CCOC(=O)c1csc(NC(=O)Nc2cccc(Cl)c2)n1,4,1,.,6,4,i,-5,-9,

# Additional results follow.
SMILES,eIF4H inh,Env fusion inh,Yeast UUG start,CSC inhib,PABP polyA inh,Rce1 inhib,MT1-MMP act inh,MT1-MMP act inh RFP,others
N#Cc1ccc(NC(=O)COc2ccc(-n3cnnn3)cc2)cc1,.,-4,-14,-6,.,.,-1,2,
Cc1ccc(NC(=O)/C(C#N)=C/c2ccsc2)c(C)c1,-2,.,-6,-4,8,i,-1,2,
CCOc1ccc(N=Cc2c(O)c3ccccc3oc2=O)cc1,9,-1,-4,-2,8,i,-4,6,
CCOc1ccccc1CNS(=O)(=O)c1cnc[nH]1,3,4,-11,-9,4,i,1,5,
COCC(=O)N1CCC(Oc2ccc(C(=O)NCCCC3CCCC3)cc2)CC1,-18,12,-3,3,-1,i,2,-14,
Cc1ccc(NC2=C(CC(=O)O)C(c3ccccc3)N(c3ccc(C)cc3)C2=O)cc1 (stereo unspecified),1,-22,-12,14,1,i,1,-1,
CC(=O)c1ccc(OCc2cn(CC(=O)c3ccc(O)cc3)nn2)c(C)c1,.,-139,60,.,.,.,2,5,
Cn1c(CCc2ccc(N)cc2)nc2ccccc21,-1,-37,.,-8,0,i,-1,-2,
COc1ccccc1Nc1ccc([N+](=O)[O-])cn1,-1,-8,.,-8,-8,.,2,3,
COc1ccc(NC(=O)CSc2nnc(Cc3ccccc3)o2)c(OC)c1,-5,.,-6,3,-1,i,-6,-10,
COC(=O)c1ccc(N=NNc2ccccc2)cc1,10,-378,-27,-10,-6,i,4,-2,
CC(=O)Nc1ccc(NC(=O)C2(C)Cc3c(-c4cccc(C(F)(F)F)c4)ccnc3O2)cc1 (stereo unspecified),.,-11,-2,.,.,.,2,2,
Cc1ccc2c(c1)C1(OCCO1)C(=O)N2,-6,16,-22,-10,-4,i,-6,-4,
Cc1cc(C)n(CCNC(=O)[C@H]2O[C@@H](n3cnc4c(N)ncnc43)[C@H](O)[C@@H]2O)n1,.,-11,-14,.,.,.,0,1,
CC(C)N(c1ccccc1)c1ncnc(NCCC(=O)O)c1[N+](=O)[O-],-13,-49,-1,-18,-1,i,-2,0,
CCCn1c(=N)c(C#N)cc2c(=O)n3cccc(C)c3nc21,5,.,.,6,2,i,.,.,
O=C(C1CCN(S(=O)(=O)c2cccc3cccnc23)CC1)N1CCN(c2ccccc2)CC1,-14,0,-15,-15,-8,.,-3,0,
CCn1c(C)cc(/C=C2/SC(=O)N(CC(=O)N3CCCC3)C2=O)c1C,12,5,-6,.,11,i,4,2,
CCCCNC(=S)NNC(=O)c1nn(C)cc1Cl,19,0,-28,-4,4,.,-1,5,
Cc1cc(=O)[nH]c(SCC(=O)Nc2nc(-c3ccccc3)cs2)n1,1,.,-1,-6,-8,i,1,2,
CS(=O)(=O)N1CCCC(C(=O)Nc2c(F)cccc2F)C1 (stereo unspecified),-2,0,-18,-18,0,i,2,2,
Cc1csc(CN(C)C(=O)CC2C(=O)NCCN2Cc2ccc(Cl)c(F)c2)n1 (stereo unspecified),-10,-4,-16,2,0,i,-1,7,
O=c1cc(CN2CCN(c3ccc(Cl)c(Cl)c3)CC2)c2ccccc2o1,.,4,10,.,.,.,-2,-11,
c1ccc(-c2nnc3sc(-c4ccncc4)nn23)cc1,-7,25,-24,-2,1,i,0,2,
Cc1ccc(S(=O)(=O)N2CC(C(=O)O)Oc3ccccc32)cc1 (stereo unspecified),-8,-1,-14,-2,4,i,-3,-3,
O=C(COc1ccc(S(=O)(=O)N2CCOCC2)cc1Cl)NCc1ccccn1,-11,-5,-13,-2,-9,i,1,3,
COC(=O)c1cc(S(=O)(=O)N2CCCCCC2)c[nH]1,-4,.,-17,1,-9,i,3,1,
CC1CCCN(S(=O)(=O)c2csc(C(N)=O)c2)C1 (stereo unspecified),13,-16,-11,-4,6,i,0,5,
COc1cc(/C=C/C(=O)C2C(=O)C=C(C)OC2=O)cc(OC)c1O (stereo unspecified),9,-2,.,2,-24,i,-50,7,
O=C(O)C1C2CCCCC2=C2CCCCC2C1C(=O)c1ccccc1 (stereo unspecified),-1,12,-8,.,14,i,-3,1,
Cc1cc2ccccc2c(=O)[nH]1,-11,.,9,-7,8,i,14,1,
O=C1/C(=C\c2ccc(Br)o2)SC(=Nc2ccccc2)N1c1ccccc1,55*,-35,-10,19,12*,i,-13,-3,eIF4H inh retest=68*;PABP polyA inh retest=51*

# Structures above containing bromine, in the order listed:
SMILES,eIF4H inh,Env fusion inh,Yeast UUG start,CSC inhib,PABP polyA inh,Rce1 inhib,MT1-MMP act inh,MT1-MMP act inh RFP,others
O=C1Nc2ccc(Br)cc2/C1=C/C(=O)c1ccc2c(c1)OCO2,6,37,.,65,-6,i,-10,-7,
O=C(CCCn1c(=O)[nH]c2ccc(Br)cc2c1=O)NCc1ccc(Cl)cc1,1,5,.,-14,5,+,5,1,
CCc1c(C)nc2ccc(Br)cc2c1Cl,0,.,-20,-8,-12,i,-5,3,
O=C1/C(=C\c2ccc(Br)o2)SC(=Nc2ccccc2)N1c1ccccc1,55*,-35,-10,19,12*,i,-13,-3,eIF4H inh retest=68*;PABP polyA inh retest=51*
